Sa ugtP lethal = growth inhibition of S. aureus ugtP deletion strain | S. aureus RN4220 ugtP deletion, OD600 growth, 16 h; some inactives read as strong as hits | growth inhibition, % (concentration not given with the values) | 0.54% of 330,000 active | AID 1259309;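 active = z-score under -3 and OD600 up to 0.15 on both plates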;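 note: plate controls were untreated wells for no effect and antibiotic for full effect; wells of about 80 µL received 100 nL stock; the first replicate is given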
PrP UTR inh = suppresses PrP 5' UTR mRNA reporter expression | 0.35% of 340,000 active | inhibition, % (test concentration not listed) | cell-based PrP 5' UTR mRNA reporter, plate reader;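 active = every replicate at 50% or more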;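 note: 0 = median of the neutral control wells; tested in H4 reporter cells; numbers are from one replicate; inactives centre near -14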
RN4220 kill = S. aureus RN4220 growth inhibition | OD600, 16 h | inhibition, % (test concentration not listed) | 0.33% of 330,000 active;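 active = z-score of -3 or lower and OD600 up to 0.18 on both plates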;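 note: plate controls were untreated cells for no effect and reference antibiotic for full effect; stock transfer was 100 nL into about 80 µL; one replicate is shown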
Bead autofluor = counter-screen for toxin protease inhibitors: compound fluorescence. compound autofluorescence counterscreen, microsphere flow cytometry; active compounds read high. fluorescence intensity (test concentration not listed). 3.1% of 360,000 active. AID 624483;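 active = at least 3 SD above the mean of all compounds, about 16000 in these data; inconclusive = too few beads counted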;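 note: 100 nL of 1 mM stock went into each well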
BJeLR viability = BJeLR cell viability loss; BJeLR (HRASV12) viability, CellTiter-Glo ATP luminescence, 48 h; reference of the scale not given here; inhibition, % (test concentration not listed); 0.17% of 300,000 active;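 active = replicate mean above 50%; inconclusive = above 50% but judged a plate artefact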;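 note: 50 nL library stock added to about 25 µL; numbers are from one replicate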
Mtb hypoxia rep = reduces hypoxia-regulated biosensor signal in M. tuberculosis | M. tuberculosis hypoxia-regulated fluorescent reporter, fluorescence | fluorescence inhibition, % (no concentration beside the values) | 0.1% of 300,000 active | AID 1159583;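 active = 35 to 45% if threefold the growth effect, above 45% if 1.5-fold the growth effect; inactive = the rest, general growth blockers included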;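 note: wells of about 50 µL received 100 nL stock; 0% = vehicle wells and 100% = reference inhibitor wells; whole bacteria with a GFP reporter of the hypoxia response; strong numbers were not always called active; many hits fall short of the cut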
Mtb hypoxia rep growth = recorded beside Mtb hypoxia rep, whose call it bears; growth inhibition, %; measured here: M. tuberculosis growth (absorbance);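 0% = vehicle and 100% = reference antibiotic; read after six days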
Starred values were filed as active, the others as inactive; ? = inconclusive; · = not tested or not shown.

SMILES	Sa ugtP lethal	PrP UTR inh	RN4220 kill	Bead autofluor	BJeLR viability	Mtb hypoxia rep	Mtb hypoxia rep growth
CCOCC(=O)Nc1ccc(S(=O)(=O)Nc2ncccn2)cc1	-5	-17	-0.6	2498	-4	·	·
O=C(NCCCc1ccccc1)C(=O)NCC1OCCN1S(=O)(=O)c1cc(F)ccc1F (configuration not stated)	5	-10	0.6	5161	4	4	-1
CSc1ccc(C=NNC(=O)COc2ccc(Br)cc2Cl)cc1	-9	·	5.2	·	·	-6	-1
COc1ccc(NC(=O)CNCc2ccc(Cl)cc2)cc1S(=O)(=O)N1CCOCC1	5	-13	5.1	3550	·	9	3
CCCCCn1ccc(=N)cc1	4	-6	1.3	2178	4	·	·
CCC(C(=O)NCCc1ccco1)n1nc(C)c2c(C)n(-c3ccccc3)nc2c1=O (configuration not stated)	0	2	-2.4	5811	-3	16	7
CCCCn1nnnc1NCc1ccc(N(CC)CC)cc1	6	-12	3.7	23951*	0	15	1
COc1cc(/C=C(\NC(C)=O)C(=O)O)cc(OC)c1OC	4	·	2.4	4533	-10	-2	6
O=C(COc1ccc([N+](=O)[O-])cc1)NNC(=O)Nc1cccc(F)c1	-1	-15	-2.5	5247	-1	-2	3
O=C(O)c1ccccc1NS(=O)(=O)c1cccc(NS(=O)(=O)c2cc(Br)ccc2Br)c1	17	2	1.7	3604	·	3	9
CC1=C([N+](=O)[O-])C(c2ccccc2Cl)NC(=O)N1 (configuration not stated)	-3	-21	-2.9	3678	-2	-3	1
CCCCCCC(=O)NN=Cc1ccco1	0	·	0.6	·	·	2	0
COc1ccc2c(c1OC)C(=O)N1c3cccc(Cl)c3C(=O)OC21 (configuration not stated)	4	5	1.7	7870	-6	15	4
O=C(CSc1nnc(SCc2ccc(Cl)cc2)s1)NN=Cc1ccccc1C(=O)O	0	·	14	·	·	7	-4
CCOC(=O)N1CCN(C(=O)c2ccc(CNS(=O)(=O)c3ccc(OC)cc3)cc2)CC1	-2	-13	-0.5	3321	9	17	15
O=C(CC1CCCCC1)NCCCN1CCOCC1	6	-3	5.9	8109	3	0	-1
CCOc1ccccc1/C=N/NC(=O)c1cc(C(C)C)[nH]n1	·	-19	·	3678	6	·	·
O=C(NCCc1ccccc1)C1CCCN(C(=O)Nc2ccc(F)cc2)C1 (configuration not stated)	-6	-21	-0.7	4918	6	15	6
CC1(C)CC(NC(=O)C(Cl)(Cl)Cl)CC(C)(C)N1	2	-8	4.7	2061	-3	7	7
O=C(NCc1ccc(Cl)cc1)c1noc2c1CCCC2	13	-1	1.6	8038	9	14	10
N/C(=N\O)c1ccccc1N1CCCCC1	·	-16	·	3241	9	·	·
CCOc1ccc(C(=O)NCC(=O)N2CCC3(CC2)NCCc2[nH]cnc23)cc1	-7	-18	4.7	6259	3	0	8
N#Cc1nc(-c2cccc3ccccc23)oc1NCCN1CCOCC1	5	-29	0.1	8567	·	11	11
CCN1CCN(c2cc(C)c3cc(NC(=S)N4CCCC4)ccc3n2)CC1	-4	-28	-2.8	3139	1	-10	2
C#CCOCCOCCOCCNc1nc(N2CCN(C(=O)C(C)n3cc(CCC(=O)O)nn3)CC2)nc(N2CCN(C(=O)C(CCCCN)n3cc(CCCC)nn3)CC2)n1 (configuration not stated)	2	·	3.0	·	·	14	6
COc1ccc(N2CCN(CC(=O)Nc3ncc(C)s3)CC2)cc1	5	-10	3.4	3340	-26	3	7
O=C1CN(C(=O)N[C@@H](Cc2ccccc2)C(=O)N[C@@H](C(=O)O)c2ccccc2)c2ccccc2N1	7	-5	4.1	5701	1	9	3
CC(C)Cc1cc(C(=O)N2CCCC(CO)(Cc3ccc(F)cc3)C2)no1 (configuration not stated)	-1	3	1.7	4004	-1	-3	-11
O=C(NCc1ccc2c(c1)CCO2)Nc1ccccc1	3	-55	0.5	5881	-4	1	3
CCOc1ncccc1C(=O)OCc1ccccc1	4	-12	-2.2	2077	5	0	-4
Cc1cc(C)c(C#N)c(SCC(=O)N(CCC#N)c2ccc3c(c2)OCCO3)n1	5	-22	2.0	4805	·	-1	2
CN(CC(=O)NC1CC1)S(=O)(=O)c1ccc(Br)cc1	8	6	1.2	?	1	-3	-4
Cn1c(=O)c(S(=O)(=O)C(C)(C)C)c(O)c2ccccc21	5	-16	0.2	2219	-8	0	-10
Cc1cccc(OC(=O)c2ccncc2)c1C	·	-29	·	3219	14	·	·
CCOc1ccc(NC(=O)COc2nsnc2N2CCCCC2)cc1	-4	·	-1.0	12584	-4	5	6
NC(=S)NNC(=O)COc1ccccc1O	1	-12	3.7	4779	26	11	8
Cc1ccc(NC(=O)COS(=O)c2ccc(C)cc2)cc1 (configuration not stated)	4	-11	4.9	5168	-8	0	2
CN(C)S(=O)(=O)c1cccc(-c2nn(-c3ccccc3)cc2/C=C2\SC(=S)N(CC(=O)O)C2=O)c1	11	-1	6.9	4712	7	4	0
NC(=O)c1ccc(NC(=O)CSc2nnc(-c3ccccn3)n2N)cc1	1	-30	1.1	4519	9	14	9
O=C(NC1CCCCC1)C1CCN(c2ncccn2)CC1	3	7	1.3	4664	-1	12	-1
CCc1nnc(NS(=O)(=O)c2ccc(NC=CC(=O)c3ccc(C)cc3)cc2)s1	-11	·	7.6	·	·	6	11
Cc1ccc(C)c(NC(=O)C2COc3ccccc3O2)c1 (configuration not stated)	8	-43	10	3820	-15	22	17
O=C(NCCc1nnc2ccc(NCc3ccc(Cl)cc3)nn12)c1ccccc1	7	-6	0.2	3484	7	4	7
COC(=O)c1c(-c2ccc(C)cc2)csc1NC(=O)C1CC=CCC1C(=O)O (configuration not stated)	-3	-15	12	2481	-2	6	10
COc1cc(CNC2CCCC2)c(Br)cc1OCc1ccccc1	-6	0	4.3	4879	-1	8	3
Cc1ccc(S(=O)(=O)N2CCOCC2)cc1C(=O)N1CCN(S(=O)(=O)c2ccccc2F)CC1	-6	0	-8.1	2926	·	-3	-6
COc1cccc2cc(C(=O)N3CCc4ccccc43)c(=O)oc12	6	-8	2.5	2468	3	·	·
COc1cc(OC)cc(C(=O)NNC(=O)CCNS(=O)(=O)c2ccc(C)c(C)c2)c1	3	-14	2.5	5018	·	0	-1
COc1ccc(C2C(C(N)=O)=C(C)Nc3nc(-c4ccccc4)nn32)cc1OC (configuration not stated)	5	-20	3.1	6050	-4	·	·
COc1ccc2[nH]c(C(=O)O)c(NC(=O)c3cc(OC)c(OC)c(OC)c3)c2c1	7	-18	1.8	3086	10	-2	-2
Cn1c(/C=C/N(Cc2ccccc2)c2ccccc2)c([N+](=O)[O-])c(=O)n(C)c1=O	-9	-36	-8.5	2202	-6	-12	-7
O=S(=O)(Nc1ccc(Cl)cn1)c1cnc(Cl)c(Br)c1	12	-20	13	4052	12	3	-1
Cc1c(Cl)cnc(NC(=O)COC(=O)C2CCCC2)c1Cl	3	·	5.0	5820	·	6	9
CC1=C/C(=C(\c2cc(C)c(O)c(Br)c2)c2ccccc2S(=O)(=O)O)C=C(Br)C1=O	·	33	·	4721	9	·	·
CC(C)CNC(=O)c1ccc(C2SCC(=O)N2Cc2ccccc2)cc1 (configuration not stated)	2	-10	1.8	4453	-3	-2	6
CN(C)C(=O)Oc1ccc(OC(=O)N(C)C)cc1	-2	-9	-0.3	3036	-1	6	13
O=S(=O)(Nc1ccc(Cl)cn1)c1ccc(Cl)cc1	-13	-15	15	3823	-2	0	-8
CSc1nc(N)c(N=Nc2ccc([As](=O)(O)O)cc2)c(=O)[nH]1	9	-5	2.2	4037	8	16	15
COc1ccccc1COc1ccc2c(C)c(CCC(=O)O)c(=O)oc2c1C	-1	-13	5.3	3302	4	17	4
CC1N/C(=C\C(=O)c2ccccc2)N(O)C1(C)C (configuration not stated)	·	-59	·	3189	3	·	·

New compounds follow:
SMILES	Sa ugtP lethal	PrP UTR inh	RN4220 kill	Bead autofluor	BJeLR viability	Mtb hypoxia rep	Mtb hypoxia rep growth
O=C(C1=C[C@H](c2ccc(Br)cc2)C[C@H](OCCCCO)O1)N1CCN(Cc2ccccc2)CC1	·	-21	·	4467	-2	·	·
CN1CCN(C(=O)c2ccc3c(=O)n4c(nc3c2)CCCCC4)CC1	-2	-29	0.2	2865	1	·	·
CCC(C)NC(=O)c1cn(-c2cccc(C)n2)cn1 (configuration not stated)	-5	-41	0.5	4206	-1	·	·
CCc1cccc(C)c1NC(=O)COC(=O)C(NS(=O)(=O)c1ccc(Cl)cc1)C(C)O (configuration not stated)	3	-11	5.3	2445	7	-6	-7
Cc1ccc(-c2cccc(CN3CCN(C4CCN(C(C)C)CC4)C(CCO)C3)c2)o1 (configuration not stated)	5	-20	3.2	3714	6	14	8
COc1ccc(-n2nc(C(=O)NCC(=O)N3CCC(C)CC3)c3ccccc3c2=O)c(OC)c1	7	-16	3.6	5586	-1	-5	1
c1ccc(CC2CCN(c3nnnn3-c3ccccc3)CC2)cc1	15	-15	-1.1	4019	1	·	·
COCCNC(=O)CSc1nnc(NC(=O)C2CC(=O)N(c3ccccc3OC)C2)s1 (configuration not stated)	5	-26	2.1	5255	2	0	7
COc1ccc(C(=O)NCC(=O)OCc2csc(-c3ccccc3)n2)cc1	33	-30	-1.1	2222	-11	12	6
COc1ccc(OCCSc2nnc(-c3ccccc3)n2N)cc1	2	-27	0.1	3020	4	·	·
CC(C)C(c1nnnn1Cc1ccc(F)cc1)N1CCN(C2CCCC2)CC1 (configuration not stated)	-4	-26	-1.8	4234	1	1	5
CCN(CC)C(=O)c1c[nH]c2ccc(S(=O)(=O)Nc3cc(C)cc(C)c3)cc2c1=O	3	-28	-0.1	4010	·	·	·
Cc1ccc(CSc2nnc(-c3ccncc3)n2C)cc1	5	2	3.8	3032	-2	4	11
COc1cc(C2c3c(c(C)c(C)oc3=O)Oc3c(C)c(C)oc(=O)c32)ccc1OS(=O)(=O)c1ccc(C)cc1	13	-2	9.2	2897	·	-3	9
Cc1c(Cl)cccc1NC(=O)Cn1c(-c2ccc(F)cc2)noc1=O	2	26	0.5	4546	7	-2	5
O=S(=O)(NCc1cccs1)c1cccc2cccnc12	7	-7	3.0	17165*	-3	4	-7
Cc1c(Cl)cccc1NC(=O)C(=O)NNC(=O)c1ccccc1F	6	-20	-4.3	4509	-7	9	5
Cc1ccc2oc(=O)c(/C=C(\O)CC(C)C)nc2c1	-8	-17	2.7	7647	8	9	0
Cc1ccc(F)c(C2C3C=CCC[C@@]3(C)C(=O)N2Cc2ccccc2)c1 (some centres not stated)	9	·	-2.0	·	·	0	5
Cc1[nH]c(=S)c(C#N)c(C)c1Cc1ccc(Cl)cc1Cl	2	0	6.8	3157	2	10	5
O=C(NCc1ccccn1)Nc1ccc(Cl)cc1Cl	5	-7	-0.4	4311	10	10	-9
Cc1cc(C)cc(NS(=O)(=O)c2cnc(Cl)c(Cl)c2)c1	-31	-4	9.6	2893	4	12	12
CC(C)(C)c1ccc(/C=C2\SC(=O)N=C2N)cc1	8	36	-16	3285	-2	-3	-3
CCOc1ccc(N(CC(=O)NCCSCc2ccccc2)S(=O)(=O)c2ccccc2)cc1	1	-15	4.5	7561	12	-3	0
CC1CCc2sc(C(=O)OCC(=O)NCc3ccc(F)cc3)cc2C1 (configuration not stated)	-1	-7	3.6	2316	7	0	-7
CCOC(=S)NC(=O)c1sc2ccccc2c1Cl	-9	·	8.6	10047	1	10	14
Cc1ccc(-c2n[nH]c(=S)n2/N=C/c2ccncc2)cc1	·	-16	·	4744	-7	·	·

Reprinted at random: 5 entries already listed.
SMILES	Sa ugtP lethal	PrP UTR inh	RN4220 kill	Bead autofluor	BJeLR viability	Mtb hypoxia rep	Mtb hypoxia rep growth
CC(C)(C)c1ccc(/C=C2\SC(=O)N=C2N)cc1	8	36	-16	3285	-2	-3	-3
CCOc1ccc(N(CC(=O)NCCSCc2ccccc2)S(=O)(=O)c2ccccc2)cc1	1	-15	4.5	7561	12	-3	0
Cc1cc(C)cc(NS(=O)(=O)c2cnc(Cl)c(Cl)c2)c1	-31	-4	9.6	2893	4	12	12
Cc1ccc(-c2n[nH]c(=S)n2/N=C/c2ccncc2)cc1	·	-16	·	4744	-7	·	·
CCOC(=S)NC(=O)c1sc2ccccc2c1Cl	-9	·	8.6	10047	1	10	14

Compound activity deposited in PubChem by several laboratories.
